Screens (PubChem BioAssay)
D2 ag: human D2 receptor agonism in beta-arrestin assay. activation, % (concentration not given with the values). actives 0.084% (n = 360,000). DiscoveRx PathHunter D2 beta-arrestin, luminescence, 90 min; 100% = 57 uM dopamine signal. AID 624465; in the data active = activation above about 40%; inconclusive = about 15% to 40%; inactive = below about 15%; further: compound concentration not given in the record; the text of the record calls up to 30% inactive
Target sequence (P14416 whole entry, looked up): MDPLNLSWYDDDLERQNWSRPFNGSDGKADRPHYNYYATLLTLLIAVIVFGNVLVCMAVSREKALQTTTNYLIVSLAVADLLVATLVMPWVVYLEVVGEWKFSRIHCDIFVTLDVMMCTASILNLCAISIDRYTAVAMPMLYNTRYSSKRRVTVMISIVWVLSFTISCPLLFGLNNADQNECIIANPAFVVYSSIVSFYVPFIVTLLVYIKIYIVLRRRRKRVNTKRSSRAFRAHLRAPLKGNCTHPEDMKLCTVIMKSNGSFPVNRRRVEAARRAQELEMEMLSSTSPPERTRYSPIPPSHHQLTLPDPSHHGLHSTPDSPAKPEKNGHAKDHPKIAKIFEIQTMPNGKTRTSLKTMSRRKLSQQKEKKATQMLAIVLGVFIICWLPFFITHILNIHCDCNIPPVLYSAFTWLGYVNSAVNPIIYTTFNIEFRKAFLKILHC
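Agonist mode: compounds alone added to overnight-plated D2 PathHunter cells for 90 min at 37 C, with 57 uM final dopamine (EC100) defining full response. Beta-arrestin recruitment detected by chemiluminescent reagent, read after 1 h at ambient temperature.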
Sfp PPTase inh: inhibitors of Bacillus subtilis Sfp phosphopantetheinyl transferase. Q9F4F7. Biochemical Sfp PPTase activity, qHTS. Potency, µM, for the others: max response, negative = inhibition, hits mostly inhibitors. actives 3.5% (n = 310,000). AID 1490; active means well fitted inhibition curve with a large enough effect; inconclusive means small, poorly fitted or top-dose-only effect, or another doubt; inactive means no such curve, though single readings can be large or run the other way;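 further: the enzyme is Sfp with the accession as filed and its product quenches rhodamine fluorescence; potency means the concentration at half of the fitted maximal effect; 0% = enzyme reaction without inhibitor and -100% = no enzyme wells; top concentration of the series not given in the record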
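Reaction rates are the 30-min fluorescence difference (ex 525, em 598 nm) in wells containing 15 nM Sfp, 5 uM rhodamine-CoA and 12.5 uM BHQ-2-YbbR at pH 7.6 with 10 mM MgCl2.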
ClpP mod: qHTS Assay for Activators of ClpP; ATP-dependent Clp protease proteolytic subunit (Bacillus subtilis (strain 168)), P80244; purified B. subtilis ClpP, FRET peptide cleavage, 20 min; Potency, µM (titrated, usually from 57.5 µM), for inactives: at the top dose activity change, negative = active; actives 1.9% (n = 340,000); active = well fitted falling curve with a large enough effect; inconclusive = small, poorly fitted or top-dose-only effect; inactive = no such curve, though single readings can be large or run the other way; further: potency means the concentration at half of the fitted maximal effect; the source files actives as falling curves though it sought activators and does not explain the sign; nearly all actives have a fitted effect of over 65% in size; many hits overshoot -100%
Target sequence (P80244 whole entry, looked up): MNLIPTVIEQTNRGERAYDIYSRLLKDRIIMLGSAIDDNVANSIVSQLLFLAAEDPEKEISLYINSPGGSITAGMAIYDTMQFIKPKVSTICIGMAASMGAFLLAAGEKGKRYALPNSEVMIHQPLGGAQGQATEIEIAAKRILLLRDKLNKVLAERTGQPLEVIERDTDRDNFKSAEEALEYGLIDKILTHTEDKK
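ClpP 10 microg/mL final, pH 8 Tris/KCl buffer with BSA, glycerol, Tween-20; compound pinned in; FRET-FV substrate; RT 20 min; Ex320/Em430; ΔFRET vs ADEP 5.8 microM, DMSO, no enzyme.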
PINK1 modulator: changes PINK1 expression; PINK1 immunofluorescence, high-content cytometry, 24 h; Potency, µM (highest dose often 76.6 µM), without a hit: at the highest dose activation (PINK1 increase), most hits filed as activators; actives 0.2% (n = 410,000); active = well fitted activation curve with a large enough effect; inconclusive = small, poorly fitted or top-dose-only effect; inactive = flat fitted curve, though single readings scatter; cell line not stated here;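 further: potency means the concentration at half of the fitted maximal effect; % of control where 0% means no effect; nearly all actives have a fitted effect of over 65% in size; a mitochondrial uncoupler was the plate control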
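Measures PINK1 amount and localization on or inside mitochondria by immunofluorescence. Stable cells get compounds at 5 concentrations for 24 hours before fixation and staining; CCCP controls included.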
gsp antag: antagonists of gsp mutant (McCune-Albright syndrome); actives 0.4% (n = 340,000); gsp-mutant cells, cAMP HTRF, 30 min; control for the full effect not named in the record; Potency, µM (titrated, usually from 76.9 µM), without a hit: top-dose activity change, negative = inhibition, usual class: inhibitors; active = falling curve of any shape with a large fitted effect; inconclusive = falling curve, mostly with a smaller effect; inactive = flat or rising curve; cell line not stated here;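 further: intracellular cAMP measured with PDE inhibitor Ro 20-1724 present during compound exposure; potency means the concentration at half of the fitted maximal effect; on the % scale 0 is the no-effect control and ±100 the full control effect; nearly all actives have a fitted effect of over 65% in size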
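HTRF cAMP read-out (cAMP-d2 plus anti-cAMP antibody-K in lysis buffer, 30 min RT). Before lysis, cells are exposed to compounds with […] for 30 min at 37C in DPBS containing Ca/Mg, BSA and Tween 20.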
gsp ag: agonists of gsp mutant (McCune-Albright syndrome); Potency, µM (top dose mostly 76.9 µM), for inactives: at the highest dose activation (cAMP increase), hits mostly activators; gsp mutant cells, cAMP HTRF, 30 min; control for the full effect not named in the record; actives 0.13% (n = 340,000); AID 624287; active = well fitted activation curve with a large enough effect; inconclusive = small, poorly fitted or top-dose-only effect, or another doubt; inactive = no such curve, though single readings can be large or run the other way; cell line not stated here;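 further: phosphodiesterase inhibitor Ro 20-1724 added with compounds to block cAMP breakdown; potency means the concentration at half of the fitted maximal effect; nearly all actives have a fitted effect of over 60% in size; about a fifth of the inactives were tested at one dose only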
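Cells in DMEM/10% FBS with G418 were pretreated with compounds in DMSO plus […] (300 uM stock) for 30 min at 37C. cAMP was measured by HTRF (cAMP-d2 plus anti-cAMP antibody-K) after 30 min at room temperature.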
Menin MLL FP FL: inhibitors of human menin-MLL interaction, wild-type MLL peptide | FP activity change, % at 61.4 µM | 290,000 tested, under 10 active | Fluorescence polarization, fluorescein-MLL peptide displacement from menin | AID 1766; inconclusive = falling polarisation curve, or a change in total fluorescence; inactive = total fluorescence flat and polarisation flat or rising; no compound was filed as active; the % refers to the polarisation; negative = inhibition;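 further: % of control where 0% means no effect; inhibitors lower the polarisation; unlabelled MLL peptide was the positive control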
* marks the source's active call; other numbers are inactive results; ? = inconclusive; / = no result given; & = joins results of further samples; [ ] = another dose, or the depositor's remark.

Molecule	D2 ag	Sfp PPTase inh	ClpP mod	PINK1 modulator	gsp antag	gsp ag	Menin MLL FP FL
Cc1cc(C(=O)Nc2ccc(S(=O)(=O)N3CCOCC3)cc2)c(C)o1	1.2	7.3%	-2.5%	5.1%	15.0%	-5.5%[15.4 µM]	9.3
CCOc1ccc(C(=O)CCC(=O)NNC(=O)c2ccccc2O)cc1	-0.6	/	/	-2.9%	-11.7%	-12.5%[15.4 µM]	/
Cc1c(C(=O)NCc2ccccn2)sc2nc(-c3ccc(F)cc3)cn12	-1.9	13.4%	-1.1%	/	-11.6%	0.0%	4.9
COc1cccc(NS(=O)(=O)c2c(C)n(C)c(=O)n(C)c2=O)c1	-1.1	-7.2%	2.5%	0.1%	-3.3%	13.3%	0.5
Nc1ccccc1SCC(=O)Nc1cccc2ccccc12	5.3	4.0%	/	-1.7%	9.9%	-44.2%[inhibitor]	1.3
COc1ccccc1C(=O)Nc1ccnn1C1CCN(Cc2csc(C(C)=O)c2)CC1	-1.8	1.6%	-2.0%	0.4%	-8.6%	11.9%	/
COCCn1c(NCc2ccc(C)cc2)nc2c1c(=O)[nH]c(=O)n2C	0.9	-5.8%	1.1%	-1.2%	-4.7%[15.4 µM]	?	2.1
O=C(C[n+]1cc(-c2ccccc2)n2c1CCC2)c1cccs1	-0.9	19.7%	/	2.9%	14.4%	28.7%	-0.1
COc1ccc(S(=O)(=O)N2CCCC(C(=O)NCc3ccco3)C2)cc1Cl (centres undefined)	-2.5	-12.6%	-1.0%	-2.6%[38.3 µM]	2.0%	-68.0%[inhibitor]	-1.4
CCc1ccccc1NC(=O)CSc1nnc(CNC(=O)c2ccco2)n1C	-3.4	7.8%	/	-0.1%	-17.0%	12.8%[15.4 µM]	-3.7
COc1ccccc1NC(=O)CCC(=O)N1CC(C)Oc2ccc(C)cc21 (centres undefined)	-5.1	6.5%	-0.7%&-2.3%	1.0%&1.9%	-5.9%	-21.2%	-2.7
Cc1cc(C)cc(OCC(=O)NCc2cc(C)nc3ccccc23)c1	-10.8	15.0%	-5.2%	-0.3%	-6.7%	13.7%	3.8
CCC(=O)N(c1nnc(SCC(=O)NN2C(=O)NC3(CCCCC3)C2=O)s1)C1CC1	-2.9	/	0.5%	0.1%	3.2%	-1.1%	/
COc1cccc(C(NC(C)=O)c2nc(-c3ccncc3)cs2)c1 (centres undefined)	1.7	/	1.2%	4.7%	/	/	/
COc1cccc(OC)c1OCC(=O)Nc1ccc(S(=O)(=O)N2CCCC2)cc1	3.5	/	0.3%	1.3%	?	-11.8%	/
CC1Cc2ccccc2N1C(=O)COC(=O)c1cc(Br)ccc1O (centres undefined)	-5.1	/	/	5.6%	-17.6%	-2.0%[15.4 µM]	/
O=C1CC(NNc2ccccc2)C(=O)N1c1cccc(Cl)c1 (centres undefined)	-2.0	13.2%	-5.3%	2.4%	-1.2%	0.0%	0.5
Cc1ccc(-c2n[nH]c(=S)n2C)cc1Cl	-3.1	?	-1.9%	-0.6%	-17.5%	5.8%[15.4 µM]	-0.5
CNC(=O)C(=O)NCC1OCCN1S(=O)(=O)c1ccc([N+](=O)[O-])cc1 (centres undefined)	7.4	9.2%	-2.7%	0.8%	6.1%	4.3%	7.6
O=C(CSc1nc2ccccc2c(=O)[nH]1)Nc1nc(-c2ccc(Br)cc2)cs1	1.4	-16.3%	-1.0%	1.1%	-19.0%	?	/
Cc1noc(C(=O)NCc2ccco2)c1Cl	-0.3	19.8%	1.3%	2.7%	6.0%	-74.6%	-2.7
Cc1ccc(-n2c(-c3ccccc3)nnc2-c2cccs2)cc1	1.8	17.5%	2.3%	/	-2.6%	-35.2%[inhibitor]	4.5
Cc1ccc(S(=O)(=O)CCc2nnc(NC(=O)C3CCCO3)s2)cc1 (centres undefined)	-1.8	10.0%	-1.2%	3.2%	3.1%	-20.6%	2.3
COc1ccc(CCN(C(=O)c2snc(C(N)=O)c2N)C(C(=O)NCC2CCCO2)c2ccc(F)cc2)cc1OC (centres undefined)	-2.4	9.6%	1.3%	1.1%	-31.6%	6.0%[15.4 µM]	1.0
CN1OC[C@@H]2CN(S(=O)(=O)c3cccc(C(F)(F)F)c3)[C@H](c3ccc(N4CCCCC4)cc3)C[C@@H]21	-4.0	/	16.3%	5.1%	/	/	/
CN(Cc1ccccc1F)c1ncnc2sccc12	-1.6	-1.2%	/	-0.9%	-5.3%	-7.3%[15.4 µM]	4.8
O=C(c1ccc2c(=O)n(Cc3ccco3)c(=S)[nH]c2c1)N1CCN(Cc2ccccc2)CC1	1.0	9.2%	0.0%	5.1%[38.3 µM]	-28.1%	?	0.1
Cc1nc(N2CCOCC2)nc(N2CCCCC2)c1[N+](=O)[O-]	0.2	-4.1%	-4.3%	-0.4%	0.3%	11.4%	1.2
COc1ccc(C2CCCN2C(=S)Nc2ccc(C)c(C)c2)cc1OC (centres undefined)	2.2	17.0%	/	1.6%	-11.1%	-11.5%	1.6
CC(C)c1cc(C(=O)NNC(=S)NCc2ccco2)c(O)c(C(C)C)c1	-0.1	15.5%	0.3%	?	-21.1%	-15.2%	0.0
COc1ccc(CNc2oc(COc3ccc(Cl)cc3)nc2C#N)cc1	2.5	17.9%	-3.0%	?	-7.2%	-8.3%	-0.8
COc1cccc(C(NC(C)=O)c2nc(-c3ccc(OC)nc3)cs2)c1 (centres undefined)	2.9	/	1.7%	8.2%	/	/	/
O=C(COC(=O)Cc1ccsc1)NCC12CC3CC(CC(C3)C1)C2	-2.5	-3.4%	-0.4%	-14.9%[38.3 µM]	15.2%	-27.0%	1.7
N#Cc1c(NCCCO)nc(-c2ccco2)c2c1CCCC2	-4.5	39.8µM*	28.2µM*	0.1%	-1.7%	-27.5%	?
CCN(CC)CCn1c(NS(=O)(=O)c2ccc(C)cc2)nc2ccccc21	-2.4	/	-2.6%	0.8%	2.3%	15.3%	/
C/C(=N\NC(=S)NC(C)C)c1ccc(Cl)c([N+](=O)[O-])c1	-2.5	-24.4%	2.0%	2.4%	-24.2%	14.2%	-2.9
CCOC(=O)Cc1cc(-c2ccc(OC)cc2)nc2ccc3ccccc3c12	-3.7	?	8.91µM*	4.3%	-15.0%	11.7%	-0.2
CNC(=S)Nc1cc(OC)ccc1OC	-0.8	?	-0.1%	?	1.8%	23.9%	-0.5
CC(=O)N1c2ccc(S(=O)(=O)N3CCCC(C(=O)NCc4ccccc4Cl)C3)cc2CC1C (centres undefined)	0.5	7.1%	-0.5%	0.4%	-14.1%	5.1%	2.8
CCOC(=O)c1sc(Nc2nc(C)cc(OC)n2)nc1C	-1.4	1.5%	-3.1%	1.2%	3.3%	4.2%	2.5
C=CCn1c2ccccc2c2nnc(SC(CC)C(=O)Nc3nc(C)c(C(=O)OCC)s3)nc21 (centres undefined)	0.3	13.9%	-1.8%	3.1%	9.3%	-52.6%[inhibitor]	0.3
CCOC(=O)c1sc2ncnc(N3CCN(C)CC3)c2c1C	-4.9	0.2%	4.0%	-1.2%	-6.4%	15.8%	-0.8
CCOC(=O)c1c(C=O)c2sc(C)cc2n1C	-0.8	9.2%	/	-0.1%	21.2%	-2.7%[15.4 µM]	-0.9
COc1ccc2cc(C(=O)C3CCCN(C(=O)c4cnn(C(C)C)c4)C3)ccc2c1 (centres undefined)	-3.6	17.2%	3.8%	0.6%	-11.1%	7.9%	0.5
COc1cc(OC)c2cc(C(=O)N/N=C/c3cccc(OC)c3O)[nH]c2c1	-2.6	4.0%	-6.6%	4.3%	?	4.2%	5.0
Cc1cccc(NC(=O)c2cc(S(=O)(=O)NCc3ccco3)ccc2F)c1C	-0.5	-2.6%	-1.8%	-0.9%[38.3 µM]	0.9%	-4.9%	-3.1
O=C(Nc1nccs1)c1ccc(-c2ccccc2[N+](=O)[O-])o1	-0.6	-15.6%	2.1%	-1.1%	3.4%	-17.4%	0.6
C#CCCOC(=O)N1C2=NC(C(=O)OC)=C(C(=O)OC)[C@@H]3N(Cc4ccccc4)c4ccccc4[C@]23C[C@H]1C(=O)OC	-1.1	19.6%&5.5%	1.1%	3.5%	-13.7%	/	1.0[11.7 µM]
O=C1OCCN1C(=O)[C@H]1[C@H](c2ccc(Cl)cc2)C(c2ccccc2)=NN1c1ccccc1	-0.3	6.1%	4.4%	1.1%	-7.9%	/	19.8
C=CCN1C(=O)c2ccc(C(=O)OCC(=O)N(CC)c3c(N)n(Cc4ccccc4)c(=O)[nH]c3=O)cc2C1=O	-0.9	/	0.8%	1.6%	9.8%	-13.0%	/
Clc1ccc(Sc2oc(/C=N/n3cnnc3)cc2Br)cc1	-0.2	-3.0%	-22.6%	0.3%	2.1%	-1.4%	-0.9
CCOc1ccccc1NC(=O)COC(=O)c1c[nH]c2ccccc12	-1.2	/	0.8%	?	-0.3%	-33.4%[inhibitor]	/
CC(=O)c1cccc(NC(=O)[C@@H](NC(N)=O)C(C)C)c1	2.7	4.3%	1.2%	-1.2%	6.3%	?	1.0
COc1ccc(/C=C(\C#N)C(=O)Nc2ccccn2)cc1	8.8	1.0%	/	0.3%	2.0%	?	-19.0
COc1ccc([N+](=O)[O-])cc1NS(=O)(=O)c1cccc(C(=O)O)c1	-6.2	7.9%	/	-0.2%	10.0%	-12.2%[15.4 µM]	-0.4
CC(C)(C)S(=O)N1Cc2cc(CO)cc(CCO)c2[C@H]1CCO (some centres undefined)	-2.4	/	-1.9%	0.1%	11.7%	/	/
CCOC(=O)N1CCN(C(c2ccc(F)cc2)c2sc3nc(C)nn3c2O)CC1 (centres undefined)	1.1	14.4%	1.1%	1.7%	1.7%	1.6%	-0.7
